CSC inhib = cancer stem cell inhibition. cancer stem cell-like cells viability, luminescence. inhibition, % at 7.5 µM. 1.1% of 300,000 active;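 active = mean at 75% or more and at least half the replicates too; tested in HMLE shEcad cells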;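 note: 0% = median of negative and 100% = median of positive control wells; the first replicate is given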
eIF4H FP inh = inhibitors of RNA binding by human eIF4H; eIF4H fluorescence polarization binding assay; inhibition, % at 35 µM; 0.94% of 290,000 active; AID 2012;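 active = 50% or more with normal probe brightness, or confirmed in later tests; about a fifth of its hits are not listed in these tables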;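 note: calls also rest on retests at 20 µM and on dose response follow-up; 0% = protein and probe with vehicle and 100% = probe without protein; strong numbers were not always called active; many hits fall short of the cut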
UUG fidelity = modulators of start codon recognition fidelity in yeast. 0.13% of 350,000 active. activity score, % at 18.7 µM. S. cerevisiae UUG-firefly luciferase reporter, luminescence/redox ratio;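 active = replicate mean at a twofold rise or more, about +100% in these data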;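 note: firefly luciferase made from a UUG start codon reports start codon fidelity; reporter light over untreated wells divided by growth signal over untreated wells; some hits fall short of that in this replicate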
MT1-MMP act inh = blocks activation of human MT1-MMP; P50281; HT1080 RFP-PRO-GFP cells, GFP/RFP ratio fluorescence, overnight; percent of plate control window, DMSO zero; GFP/RFP ratio change, % at 20 µM; 0.061% of 360,000 active;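 active = GFP/RFP ratio change of at least 30% with cell ATP level not reduced by more than half and red fluorescence within 50% of control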; note: strong numbers were not always called active
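Assay system – RFP-PRO-GFP reporter HT1080 cells · Compound dosing – single dose of 20 µM compound, 1% DMSO final · Incubation – overnight compound exposure at 37 °C · Measure – GFP/RFP fluorescence ratio · Benchmarks – DMSO wells and RFP-L50D-GFP cells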
PABP FP inh = blocks human PABP binding to poly(A) RNA | P11940 | fluorescence polarization | inhibition, % at 35 µM | 1% of 290,000 active;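 active = 50% or more with normal probe brightness, or confirmed in later tests; about a fifth of its hits are not listed in these tables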;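 note: calls also rest on retests at 20 µM and on dose response follow-up; controls were probe without protein and protein plus probe with vehicle; some compounds called inactive have numbers as strong as hits; many hits fall short of the cut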
Target sequence (P11940 whole entry, looked up): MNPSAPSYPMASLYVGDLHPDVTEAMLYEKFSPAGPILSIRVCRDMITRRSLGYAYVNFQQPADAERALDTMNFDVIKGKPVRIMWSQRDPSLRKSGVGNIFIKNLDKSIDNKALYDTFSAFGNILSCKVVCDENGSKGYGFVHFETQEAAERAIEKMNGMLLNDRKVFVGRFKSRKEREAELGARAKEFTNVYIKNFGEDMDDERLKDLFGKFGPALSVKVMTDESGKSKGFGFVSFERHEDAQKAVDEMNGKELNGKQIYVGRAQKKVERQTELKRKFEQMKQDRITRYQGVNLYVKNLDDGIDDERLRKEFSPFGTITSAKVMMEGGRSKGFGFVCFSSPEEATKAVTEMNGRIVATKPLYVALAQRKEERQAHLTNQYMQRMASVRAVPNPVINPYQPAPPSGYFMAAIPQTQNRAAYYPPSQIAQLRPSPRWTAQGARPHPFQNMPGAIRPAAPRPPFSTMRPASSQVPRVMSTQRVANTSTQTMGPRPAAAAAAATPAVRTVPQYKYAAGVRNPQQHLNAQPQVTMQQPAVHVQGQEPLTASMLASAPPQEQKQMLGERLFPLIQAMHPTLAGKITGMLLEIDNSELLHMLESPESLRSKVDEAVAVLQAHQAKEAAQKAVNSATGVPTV
Env fusion inh = HIV envelope-mediated fusion inhibition | inhibition, % at 12.3 µM | AID 651610 | HeLa-JRFL Env/CEM21 cell fusion, luciferase | 1.1% of 360,000 active;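 active = mean replicate inhibition score of at least 50 and every replicate individually at or above 50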;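 note: 0% = plate neutral controls and 100% = maraviroc near 300 nM; one replicate is shown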
Rce1 inh = inhibitors of yeast Ras-converting enzyme. calls only. yeast membranes, quenched prenylated peptide cleavage fluorescence. AID 2563. 0.27% of 290,000 active. Q03530;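 active = fall in fluorescence gain of 50% or more versus controls, with final raw signal at or below 3038400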;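 note: plate controls were neutral control wells for no effect and wells lacking membranes for full effect; tested at 10 µM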
eIF4H FP inh retest = second read-out of eIF4H FP inh, no call of its own (marks repeat the call); inhibition, %; compound at 20 µM; confirmation average;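 mean of two retest wells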
PABP FP inh retest = further read-out of PABP FP inh, marked with its call; inhibition, %; compound at 20 µM; confirmation repeats;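 mean of two retest wells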
MT1-MMP act inh RFP = second read-out of MT1-MMP act inh, no call of its own (marks repeat the call); RFP signal change, %; measured here: RFP expression control read;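 0 = vehicle wells; hits needed this value within 50% of zero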
Active calls of the source: *.

COc1ccc(C2CC(c3cccc(C)c3)n3nc(N)nc3N2)cc1 (configuration not stated) was read as CSC inhib -13, eIF4H FP inh -2, UUG fidelity -24, MT1-MMP act inh 7, PABP FP inh -13, Env fusion inh 1, Rce1 inh inactive and MT1-MMP act inh RFP 2.
`COc1ccc(-c2cc(C(=O)N3CCN(c4ccc(F)cc4)CC3)no2)cc1` gave CSC inhib -14, eIF4H FP inh -6, UUG fidelity -11, MT1-MMP act inh 7, PABP FP inh -3, Env fusion inh 17, Rce1 inh inactive and MT1-MMP act inh RFP -15.
CCCCCC(=O)NNC(=S)NC(=O)c1ccc([N+](=O)[O-])cc1 was read as eIF4H FP inh 62, UUG fidelity -20, MT1-MMP act inh 2, PABP FP inh 4, Env fusion inh -3, Rce1 inh inactive, eIF4H FP inh retest 11, PABP FP inh retest 22 and MT1-MMP act inh RFP 2.
COc1ccc(NC(=O)CS(=O)CC(=O)NCc2cccc(C(F)(F)F)c2)cc1 (configuration not stated) was read as CSC inhib 0, eIF4H FP inh 1, UUG fidelity -6, MT1-MMP act inh 6, PABP FP inh 8, Env fusion inh 17, Rce1 inh inactive and MT1-MMP act inh RFP 6.
`O=C(CN1CSCC1=O)N1CCN(S(=O)(=O)c2cccc(F)c2)CC1` gave CSC inhib -8, UUG fidelity -19, MT1-MMP act inh 6, Env fusion inh inactive and MT1-MMP act inh RFP 3.
Screening Cc1ccc(C(=O)NCc2nnc(SCC(=O)NC(C)c3ccccc3)n2C)cc1 (configuration not stated) returned CSC inhib -4, eIF4H FP inh -7, UUG fidelity -17, MT1-MMP act inh -4, PABP FP inh -2, Env fusion inh -5, Rce1 inh inactive and MT1-MMP act inh RFP 3.
Screening CC1CN(c2oc(-c3ccco3)nc2S(=O)(=O)c2ccccc2)CC(C)O1 (configuration not stated) returned CSC inhib -4, eIF4H FP inh 0, UUG fidelity -6, MT1-MMP act inh 1, PABP FP inh 10, Rce1 inh inactive and MT1-MMP act inh RFP 5.
`CCOc1ccccc1N1CCN(C(=O)c2ccc3c(c2)OCO3)CC1` gave CSC inhib -3, eIF4H FP inh 2, UUG fidelity 6, MT1-MMP act inh -10, PABP FP inh -7, Env fusion inh -91 and MT1-MMP act inh RFP -6.
O=C(CNc1cc(S(=O)(=O)N2CCOCC2)ccc1NCC1CCCO1)Nc1ccccc1F (configuration not stated) was read as eIF4H FP inh -9, UUG fidelity -8, MT1-MMP act inh 0, PABP FP inh 1, Rce1 inh inactive and MT1-MMP act inh RFP 0.
For CC(C)(C)c1ccc(-n2ncc3c2CCCC3NC(=O)CCN2CCCO2)cc1 (configuration not stated) the results were CSC inhib 20, eIF4H FP inh 0, UUG fidelity -12, MT1-MMP act inh 7, PABP FP inh 1, Env fusion inh 22, Rce1 inh inactive and MT1-MMP act inh RFP -17.
`O=C(CSc1ccccc1F)NNC(=O)c1ccncc1` gave CSC inhib -16, UUG fidelity -8, MT1-MMP act inh -1, Env fusion inh -7 and MT1-MMP act inh RFP 6.
For COCCN1Cc2cccc(C(=O)NC3CCCCCC3)c2C1=O the results were CSC inhib -5, eIF4H FP inh 1, UUG fidelity 2, MT1-MMP act inh -2, PABP FP inh 9, Env fusion inh -2, Rce1 inh inactive and MT1-MMP act inh RFP -3.
`Cc1sc(NC(=O)c2ccco2)c(C(Nc2ccccn2)c2ccccc2)c1C` (configuration not stated) gave CSC inhib -6, eIF4H FP inh -4, MT1-MMP act inh -3, PABP FP inh -21, Env fusion inh -114, Rce1 inh inactive and MT1-MMP act inh RFP -2.
`COc1ccccc1CNC(=O)COC(=O)CC1CC2CCC1C2` (configuration not stated) gave CSC inhib 7, UUG fidelity -6, MT1-MMP act inh -2 and MT1-MMP act inh RFP -1.
Cn1cnnc1Sc1ccc(C(=O)OCC(=O)Nc2cc(Cl)cc(Cl)c2)cc1[N+](=O)[O-] was read as CSC inhib -2, eIF4H FP inh -14, UUG fidelity -13, MT1-MMP act inh 6, PABP FP inh 27, Env fusion inh 9, Rce1 inh inactive and MT1-MMP act inh RFP 1.
Cc1onc(-c2ccccc2Cl)c1C(=O)N1CCc2ccccc21 was read as CSC inhib -12, eIF4H FP inh 5, UUG fidelity -4, MT1-MMP act inh -6, PABP FP inh 3, Rce1 inh inactive and MT1-MMP act inh RFP -6.
CC(OC(=O)c1ccc(Cl)c(S(=O)(=O)N2CCOCC2)c1)C(=O)Nc1ccc(S(N)(=O)=O)cc1 (configuration not stated) was read as CSC inhib -16, MT1-MMP act inh 3, Env fusion inh 3, Rce1 inh inactive and MT1-MMP act inh RFP 5.
`O=C(O)c1ccc(-n2nc(-c3ccccc3)c3ccccc3c2=O)cc1` gave CSC inhib 16, eIF4H FP inh 12, UUG fidelity -5, MT1-MMP act inh 2, PABP FP inh 8, Env fusion inh -3, Rce1 inh inactive and MT1-MMP act inh RFP 1.
For Cn1nnnc1SCCNCC#Cc1ccccc1 the results were CSC inhib 0, eIF4H FP inh 2, UUG fidelity -20, MT1-MMP act inh -2, PABP FP inh -2, Env fusion inh -49, Rce1 inh inactive and MT1-MMP act inh RFP -2.
COc1ccccc1CNC(=O)c1ccc(OC(F)F)c(OC)c1 was read as CSC inhib -13, eIF4H FP inh 3, MT1-MMP act inh 1, PABP FP inh -12, Rce1 inh inactive and MT1-MMP act inh RFP 1.
Screening COc1cc(-c2nnc(SCC(=O)c3ccccc3)o2)cc(OC)c1OC returned CSC inhib -13, eIF4H FP inh -7, UUG fidelity 8, MT1-MMP act inh 22, PABP FP inh 1, Rce1 inh inactive and MT1-MMP act inh RFP -4.
CCc1ccc(S(=O)(=O)NCc2ccc(N3CCN(C)CC3)cc2)cc1 was read as CSC inhib 30, eIF4H FP inh -12, UUG fidelity 2, MT1-MMP act inh -5, PABP FP inh 0, Env fusion inh 0 and MT1-MMP act inh RFP -4.
CC(c1ccccc1C(O)c1ccccc1)N(C)C (configuration not stated) was read as CSC inhib -1, eIF4H FP inh 6, UUG fidelity -7, MT1-MMP act inh 0, PABP FP inh -8, Rce1 inh inactive and MT1-MMP act inh RFP 2.
Screening C[C@@H]1CN(Cc2nnnn2CC(=O)NCCCn2cccn2)C[C@H](C)O1 returned UUG fidelity -5, MT1-MMP act inh 0, Env fusion inh -17 and MT1-MMP act inh RFP 3.
For O=C(CNC(=O)c1ccc2c(c1)OCCO2)N/N=C/c1ccc([N+](=O)[O-])cc1 the results were eIF4H FP inh -18, UUG fidelity -9, MT1-MMP act inh -1, PABP FP inh 2, Env fusion inh -2, Rce1 inh inactive and MT1-MMP act inh RFP 2.
For Cc1cc(NS(=O)(=O)c2ccc(NC(=O)CCc3ccccc3)cc2)no1 the results were CSC inhib -13, eIF4H FP inh 4, UUG fidelity -10, MT1-MMP act inh 0, PABP FP inh 11, Rce1 inh inactive and MT1-MMP act inh RFP 2.
For COc1cc2nc(=S)n(CCCN3CCOCC3)c(N)c2cc1OC the results were eIF4H FP inh -1, MT1-MMP act inh 1, PABP FP inh -3 and MT1-MMP act inh RFP -1.
`Cc1ccc(Oc2ncnc(N)c2[N+](=O)[O-])cc1` gave CSC inhib -2, eIF4H FP inh 2, MT1-MMP act inh -1, PABP FP inh -9, Env fusion inh -1, Rce1 inh inactive and MT1-MMP act inh RFP -1.
COc1ccc(N2C(=O)NC3CC2(C)Oc2ccc(Cl)cc23)cc1OC (configuration not stated) was read as CSC inhib 8, eIF4H FP inh -2, MT1-MMP act inh 3, PABP FP inh 9, Rce1 inh inactive and MT1-MMP act inh RFP 5.
Screening CCOc1ccc(NC(=O)CCC(=O)OC)cc1 returned CSC inhib -9, eIF4H FP inh -5, UUG fidelity -21, MT1-MMP act inh 1, PABP FP inh 5, Env fusion inh 13, Rce1 inh inactive and MT1-MMP act inh RFP 4.
Screening CCOC(=O)c1ccc(N=Cc2cnc(N)nc2N)cc1 returned UUG fidelity -1, MT1-MMP act inh 4, Env fusion inh -26 and MT1-MMP act inh RFP 3.
Nc1ccc(Oc2cc(N)cc(Oc3ccccc3)c2)cc1 was read as CSC inhib 2, eIF4H FP inh -6, UUG fidelity -21, MT1-MMP act inh -3, PABP FP inh 3, Env fusion inh -55, Rce1 inh inactive and MT1-MMP act inh RFP 0.
`Cc1ccc([N+](=O)[O-])cc1Nc1nc(N2CCCC2)nc(N2CCCC2)n1` gave CSC inhib 2, eIF4H FP inh -1, UUG fidelity -9, MT1-MMP act inh 5, PABP FP inh 11, Env fusion inh -8, Rce1 inh inactive and MT1-MMP act inh RFP -1.
O=C(O)C1CCCCC1C(=O)Nc1ccc(S(=O)(=O)N2CCCCC2)cc1 (configuration not stated) was read as eIF4H FP inh -13, UUG fidelity -12, MT1-MMP act inh 0, PABP FP inh 1, Env fusion inh -43, Rce1 inh inactive and MT1-MMP act inh RFP 4.
O=C(Cc1c(Cl)cccc1Cl)Nc1ccc(S(=O)(=O)Nc2ncccn2)cc1 was read as CSC inhib -12, eIF4H FP inh 7, UUG fidelity -5, MT1-MMP act inh -3, PABP FP inh 11, Env fusion inh 4, Rce1 inh inactive and MT1-MMP act inh RFP -4.
CCn1c(Cc2ccccc2)nnc1SCC(=O)Nc1cc(C)on1 was read as CSC inhib -2, eIF4H FP inh 9, UUG fidelity -10, MT1-MMP act inh 3, PABP FP inh 5, Rce1 inh inactive and MT1-MMP act inh RFP -1.
CCc1ccc(OCC(=O)NNC(=O)Cc2ccc(S(=O)(=O)N3CCOCC3)s2)cc1 was read as CSC inhib -10, UUG fidelity 29, MT1-MMP act inh -3, Env fusion inh 12, Rce1 inh inactive and MT1-MMP act inh RFP 1.
`N#Cc1cccc(NCC(=O)Nc2cccc(S(=O)(=O)N3CCCCC3)c2)c1` gave CSC inhib -16, UUG fidelity -3, MT1-MMP act inh 4, Env fusion inh 22 and MT1-MMP act inh RFP -7.
For Cc1c(OC(C)C(=O)N[C@@H](Cc2ccccc2)C(=O)O)ccc2c3c(c(=O)oc12)CCCC3 (some centres not stated) the results were CSC inhib -1, eIF4H FP inh 6, UUG fidelity -14, MT1-MMP act inh -1, PABP FP inh 11 and MT1-MMP act inh RFP 6.

Ordered by formula weight (high to low): part of the list above.
CCc1ccc(OCC(=O)NNC(=O)Cc2ccc(S(=O)(=O)N3CCOCC3)s2)cc1 was read as CSC inhib -10, UUG fidelity 29, MT1-MMP act inh -3, Env fusion inh 12, Rce1 inh inactive and MT1-MMP act inh RFP 1.
`O=C(CN1CSCC1=O)N1CCN(S(=O)(=O)c2cccc(F)c2)CC1` gave CSC inhib -8, UUG fidelity -19, MT1-MMP act inh 6, Env fusion inh inactive and MT1-MMP act inh RFP 3.
For Cc1cc(NS(=O)(=O)c2ccc(NC(=O)CCc3ccccc3)cc2)no1 the results were CSC inhib -13, eIF4H FP inh 4, UUG fidelity -10, MT1-MMP act inh 0, PABP FP inh 11, Rce1 inh inactive and MT1-MMP act inh RFP 2.
`Cc1ccc([N+](=O)[O-])cc1Nc1nc(N2CCCC2)nc(N2CCCC2)n1` gave CSC inhib 2, eIF4H FP inh -1, UUG fidelity -9, MT1-MMP act inh 5, PABP FP inh 11, Env fusion inh -8, Rce1 inh inactive and MT1-MMP act inh RFP -1.
Cc1onc(-c2ccccc2Cl)c1C(=O)N1CCc2ccccc21 was read as CSC inhib -12, eIF4H FP inh 5, UUG fidelity -4, MT1-MMP act inh -6, PABP FP inh 3, Rce1 inh inactive and MT1-MMP act inh RFP -6.
`O=C(CSc1ccccc1F)NNC(=O)c1ccncc1` gave CSC inhib -16, UUG fidelity -8, MT1-MMP act inh -1, Env fusion inh -7 and MT1-MMP act inh RFP 6.
